# RecA splice inh: blocks M. tuberculosis RecA intein splicing; cell-free RecA intein splicing, fluorescence; inhibition, %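 (about 9 µM by stock and volumes)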; 290,000 compounds, 0.75% hits; in the data active = inhibition above about 30%;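 also: 0% = vehicle wells and 100% = reference inhibitor control wells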
# Target sequence (P9WHJ3 whole entry, looked up, canonical isoform): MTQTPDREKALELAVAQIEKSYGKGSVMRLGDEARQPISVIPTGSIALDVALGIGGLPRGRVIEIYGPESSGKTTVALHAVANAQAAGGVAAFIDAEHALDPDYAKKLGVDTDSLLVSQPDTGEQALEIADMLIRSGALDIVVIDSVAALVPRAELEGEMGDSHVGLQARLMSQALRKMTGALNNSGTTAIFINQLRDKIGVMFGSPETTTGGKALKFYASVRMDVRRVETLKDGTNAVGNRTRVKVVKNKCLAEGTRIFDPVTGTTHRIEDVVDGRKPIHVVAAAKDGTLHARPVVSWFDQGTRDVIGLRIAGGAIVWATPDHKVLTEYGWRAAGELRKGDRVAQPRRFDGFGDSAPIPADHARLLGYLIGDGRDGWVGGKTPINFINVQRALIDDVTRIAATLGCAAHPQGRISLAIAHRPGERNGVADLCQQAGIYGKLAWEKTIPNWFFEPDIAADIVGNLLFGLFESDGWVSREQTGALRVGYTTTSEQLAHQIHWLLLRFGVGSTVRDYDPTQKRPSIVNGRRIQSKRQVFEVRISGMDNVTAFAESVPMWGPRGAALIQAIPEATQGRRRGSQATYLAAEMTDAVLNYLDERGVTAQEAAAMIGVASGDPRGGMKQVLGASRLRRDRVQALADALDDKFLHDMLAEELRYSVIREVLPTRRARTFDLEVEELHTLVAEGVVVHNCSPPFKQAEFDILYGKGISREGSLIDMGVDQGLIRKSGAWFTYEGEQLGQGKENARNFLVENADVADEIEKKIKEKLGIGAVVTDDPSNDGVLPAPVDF
# Mtb betalactam: beta-lactam sensitization of Mtb H37Rv. AID 434955. inhibition, % at 25 µM. 330,000 compounds, 0.27% hits. M. tuberculosis H37Rv growth with meropenem, percent inhibition; hits of this screen are not shown here;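 active = about 74% or more and at least 40 points above the plate without the antibiotic, then above 30% in a dose series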;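 also: growth measured after seven days incubation then overnight dye step; 0% = bacteria only wells and 100% = bacteria with antibiotic; twin plates without the antibiotic show which effects depend on it; some results filed as inactive read as strong as hits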
# YopH PTP inh: YopH (Yersinia) phosphatase inhibition; inhibition, %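 (about 10 µM by stock and volumes)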; 140,000 compounds, 0.16% hits; fluorescence Ex485/Em525;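 active = inhibition of 50% or more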;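 also: controls were vehicle for no effect and minimum signal wells for full effect; inactives centre near -20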
# Mtb growth: M. tuberculosis H37Rv growth inhibitors, H37Rv strain (AID 1626) | M. tuberculosis H37Rv growth inhibition; higher % means a stronger effect | 220,000 compounds, 0.95% hits | one-dose inhibition, % at 10 µM; IC50 in µM for titrated hits;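 active = confirmed in a dose series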;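 also: bacteria incubated seven days before Alamar blue readout; 0% = bacteria only wells and 100% = bacteria with antibiotic wells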
# Arbovirus inh: blocks arbovirus infection. arbovirus infection cell-based antiviral screen. inhibition, % at 10 µM. 200,000 compounds, 0.37% hits;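 active = inhibition from about 30%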;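 also: bluetongue infection of BSR cells; cell survival read as ATP light after 72 h; 0% = infected wells without compound and 100% = uninfected wells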
# Arbovirus inh repeat: further read-out of Arbovirus inh, marked with its call; inhibition, %; measured here: 10K subset replicate screen; many hits read low in the repeat;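 first of two repeat runs on a subset; 0% = infected and 100% = uninfected wells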
# Starred values were filed as active, the others as inactive; . = no result given. Not all compounds are listed; the hit share may differ from the screen's.
SMILES,RecA splice inh,Mtb betalactam,YopH PTP inh,Mtb growth,Arbovirus inh,others
CC(=O)c1cccc(NC(=S)N2CCN(S(C)(=O)=O)CC2)c1,2.8,-13.5,.,.,.,
COc1cc(C)nc(N2CCC(C(N)=O)CC2)n1,-0.9,-3.4,-32.0,-7.4%,0.1,
Cc1ccc(Nc2nc(NCCO)nc(N3CCCC3)n2)cc1,-0.3,8.3,.,0.8%,.,
COC(=O)c1ccc(-n2cc(-c3ccc(OC)cc3)[nH]c2=S)cc1,.,91.6,-9.2,48.7%,6.5,
CCN(c1ccccc1)S(=O)(=O)c1ccc(OC)c(NC(=O)COc2ccc(C(C)=O)cc2)c1,2.3,0.9,.,.,.,
C/C(=N\NC(=O)c1cc(-c2ccco2)nc2ccccc12)c1cccnc1,-4.1,4.1,.,-3.0%,3.2,
CN(CCO)c1ncnc2nc[nH]c12,0.6,1.4,-20.8,2.7%,7.8,Arbovirus inh repeat=-3.3
CCC(=O)Nc1ccc(C(=O)NNC(=O)c2cc(OC)c(OC)c(OC)c2)cc1,-5.1,-3.5,.,.,1.5,
ONC(=Nc1ccccc1Cl)c1c(F)cccc1F,5.0,-2.4,.,.,.,
O=C(N/N=C/c1ccc(OC(F)F)cc1)c1cc[n+]([O-])cc1,-0.3,-7.5,.,.,.,
CC(C)CN1C(=O)c2ccc(C(=O)NCc3ccccn3)cc2C1=O,2.1,-6.5,.,.,.,
O=C(Cn1ccc([N+](=O)[O-])n1)NCCc1c[nH]c2ccccc12,-1.9,-0.8,.,4.0%,2.1,

# A run of entries of the results above, for reference:
SMILES,RecA splice inh,Mtb betalactam,YopH PTP inh,Mtb growth,Arbovirus inh,others
CC(=O)c1cccc(NC(=S)N2CCN(S(C)(=O)=O)CC2)c1,2.8,-13.5,.,.,.,
COc1cc(C)nc(N2CCC(C(N)=O)CC2)n1,-0.9,-3.4,-32.0,-7.4%,0.1,
Cc1ccc(Nc2nc(NCCO)nc(N3CCCC3)n2)cc1,-0.3,8.3,.,0.8%,.,
COC(=O)c1ccc(-n2cc(-c3ccc(OC)cc3)[nH]c2=S)cc1,.,91.6,-9.2,48.7%,6.5,

# Continued:
SMILES,RecA splice inh,Mtb betalactam,YopH PTP inh,Mtb growth,Arbovirus inh,others
CC(=O)Nc1ccc(S(=O)(=O)N2CCN(c3ccc(C)c(Cl)c3)CC2)cc1,-2.2,0.5,-8.1,2.4%,1.9,Arbovirus inh repeat=-3.7
COC(=O)c1cnn(-c2nc3c(C)cccc3s2)c1C,0.3,21.2,-1.2,-0.3%,-19.1,
CCc1c(C(=O)NNC(=S)NCc2ccccc2)csc1C,0.3,0.8,-23.2,4.2%,10.0,
NC(=O)N/N=C/c1ccccc1OCc1cccc2ccccc12,-0.9,4.8,.,.,.,
CCn1c(C)nc2cc(C(=O)N/N=C/c3ccccc3C)ccc21,0.2,3.8,.,-2.5%,-1.4,
COc1cc(SC)ccc1C(=O)Nc1ccncc1,0.1,2.1,.,1.1%,9.3,
Cc1ccccc1OCC(=O)Nc1ccc([N+](=O)[O-])cc1,-2.0,1.3,.,.,.,
Cc1ccc(C)c(OCc2ccc(C(=O)NN)o2)c1,-3.0,-5.7,.,-0.6%,.,
CCOCCCNC(=O)c1cn(CC)c2ccc(S(=O)(=O)N(C)C3CCCCC3)cc2c1=O,-1.7,2.7,.,.,.,
O=c1[nH]c2ccccc2nc1/C=C/c1ccc(F)cc1,0.5,3.8,.,-0.4%,0.1,
CC(=O)c1ccc(NC2CC(O)C(O)CO2)cc1 (configuration not stated),-1.7,-11.9,-58.0,-2.8%,-0.8,
COc1ccc(CNC(=S)NCc2ccc(F)cc2)cc1OC,3.8,-13.9,.,.,.,
CCOc1cc(-c2cc(-c3ccc(C)o3)nc(N)c2C#N)ccc1O,0.7,4.8,-35.2,9.6%,-13.8,
Fc1cc(F)c2nc(Nc3nc4cc5c(cc4s3)OCO5)sc2c1,-0.2,-0.8,-25.8,19.3%,-24.2,
O=C(NC1CCCCCC1)c1c(O)nc2sccn2c1=O,5.9,14.0,.,.,.,
CCCC(=O)Nc1cccc(-c2cn3cccnc3n2)c1,-0.6,-8.2,.,8.0%,1.0,
CC(C(=O)N1c2ccccc2Sc2ccccc21)n1nnc(-c2cccs2)n1 (configuration not stated),7.1,3.5,-0.6,2.5%,-1.3,
COc1ccc(NC(=O)C2=C(C)C(=O)OC23CCC(C)CC3)cc1Cl (configuration not stated),2.1,-4.5,-1.3,-5.2%,3.6,
COc1ccc(N2CC(C(=O)NC3CC(C)(C)NC(C)(C)C3)CC2=O)cc1 (configuration not stated),-0.6,8.2,.,4.0%,-0.2,Arbovirus inh repeat=-0.2
CCOc1ccc(C(=O)Nc2cc(OC)ccc2OC)cc1,4.1,-3.8,-33.5,0.5%,0.2,
CCCN1C(=O)/C(=C/c2ccncc2)SC1=S,5.2,5.0,-35.6,-0.6%,-1.1,
CNC(=S)Nc1cccc2[nH]ncc12,6.8,-4.1,-0.8,-4.8%,10.2,
COC(=O)COc1ccc(S(=O)(=O)N2CCc3ccccc3C2)cc1C,2.0,-1.1,-22.5,-19.4%,7.0,
CCOc1ccccc1N1CC(C(=O)NCCc2ccc(S(N)(=O)=O)cc2)CC1=O (configuration not stated),-2.9,5.1,-4.4,.,0.6,
O=C(Nc1ccccc1[N+](=O)[O-])c1ccc(S(=O)(=O)N2CCCC2)cc1,-0.7,2.5,.,.,.,
O=C(CCCCCBr)N1CCC(CC2CC(c3cccc(Br)c3)=NO2)(C(=O)NCC2CCCCC2)CC1 (configuration not stated),2.3,99.8,.,.,.,
Cc1oc2c(C)c(O)ccc2c(=O)c1-c1nncn1-c1ccccc1,-19.0,2.9,.,0.2%,4.2,
COC(=O)c1sc(Nc2ccccc2)nc1C,2.3,8.4,-56.9,2.5%,-2.5,
COc1cc(C(=O)N(CCc2ccccc2)C2=CC3CCC(C2)N3C)cc(OC)c1OC (configuration not stated),-1.2,-5.5,11.7,-3.7%,0.5,
Cc1sc2nc(SCC(=O)N3CCN(CCO)CC3)n(-c3ccccc3)c(=O)c2c1C,.,-4.3,-17.4,-1.2%,3.7,
Nc1ccc(N2CCCCC2)c2nonc12,74.7*,6.0,.,-6.3%,-30.7,
CCN(CC)C(=O)c1ccc(NC(=O)c2sccc2-c2ccccc2)cc1,1.5,-11.8,.,.,.,
CC(=O)Nc1ccc(NC(=O)COC(=O)c2cc(S(=O)(=O)N(C)C)ccc2N2CCCC2)cc1,0.7,-9.9,.,.,.,
Cc1nc2oc3ccc(Cl)cc3c(=O)c2cc1C(=O)O,-2.6,-4.9,.,.,.,
Cc1ccc(NC(=O)c2cn(CCC#N)nc2-c2cccs2)c([N+](=O)[O-])c1,-1.0,7.2,-11.1,11.7%,-2.1,
CN1CCN(c2ccccc2NC(=O)c2cc3c(s2)-c2ccccc2OC3)CC1,-5.3,94.1,.,8.62µM*,.,
Cn1nnc2cc(C(=O)N3CCN(c4ccccc4)CC3)ccc21,2.4,-7.5,-14.5,-2.8%,6.5,
CCOc1cc2[nH]c(=S)n(CC3CCCO3)c(=O)c2cc1OCC (configuration not stated),1.0,-12.4,-52.1,-1.1%,5.0,
Cc1c(NC(=O)C(C)OC(=O)c2cccc([N+](=O)[O-])c2)c(=O)n(-c2ccccc2)n1C (configuration not stated),0.8,-4.1,.,0.6%,1.2,
O=C(CCC(=O)Nc1ccc(F)cc1)N/N=C/c1ccccc1O,-4.9,0.6,.,1.9%,-17.4,
Cn1c(Cn2c(=O)sc3ccccc32)nnc1SCC(=O)NC1CCCCC1,2.2,-2.6,-4.6,-5.5%,1.2,Arbovirus inh repeat=-0.7
CC(C(=O)NC1CCCC1)N1CCN(Cc2ccccc2)CC1 (configuration not stated),1.6,-6.5,.,13.4%,18.5,
CN(C)S(=O)(=O)c1ccc(NC(=O)COc2ncnc3c2cnn3-c2ccccc2)cc1,0.3,-0.8,-38.8,8.3%,9.4,
CCN(Cc1ccccc1)S(=O)(=O)c1ccc(C(=O)N2CCN(c3nc4ccccc4s3)CC2)cc1,0.5,-1.7,-28.9,-11.1%,3.9,
COc1ccc(CCNC(=S)N2CCN(S(=O)(=O)c3ccccc3)CC2)cc1,0.9,0.1,.,.,.,
c1ccc(CNC2=NCCC2)nc1,-5.4,-5.0,11.1,-2.5%,-0.2,
COC(=O)c1c(NC(=O)CSc2nnnn2-c2ccccc2)sc2c1CCC(C(C)(C)C)C2 (configuration not stated),3.3,.,-12.6,14.8%,-0.5,
COc1ccc(NC(=O)CCOc2ccccc2C)cc1S(=O)(=O)N1CCCCC1,8.8,-7.4,.,.,.,
CCC(=O)c1ccc(OCC(=O)OCC(=O)N2CCN(c3ccc(OC)cc3)CC2)cc1,-2.3,61.0,.,.,.,
CN(c1ccccc1)c1nc(N2CCCC2)nc(-n2ccnc2)n1,13.6,99.3,-16.6,3.05µM*,-13.9,
O=[N+]([O-])c1cc(Cl)ccc1N1CCN(c2cccc(C(F)(F)F)c2)CC1,9.4,12.0,-28.3,4.0%,1.7,
COc1ccc(S(=O)(=O)N2CCN3CCCC3C2)cc1 (configuration not stated),0.3,-2.9,.,.,.,
COc1ccc(/C=N/NC(=O)Cn2cnc3c2c(=O)n(C)c(=O)n3C)c(OC)c1OC,-1.2,1.2,.,-4.3%,.,
O=C(CCN1C(=O)c2ccc([N+](=O)[O-])cc2C1=O)Nc1nccs1,-1.4,-5.5,.,-10.7%,-2.1,
Cc1ccc(S(=O)(=O)NNC(=O)Cc2cccn2C)cc1,0.3,-6.2,.,2.4%,5.5,
COc1cc(NC(=O)c2ccccc2)ccc1NC(=O)c1cc2ccccc2o1,-11.5,0.2,.,.,.,
NC(=O)c1cc2c(s1)-c1cc(Cl)ccc1SC2,-4.4,76.1,.,-5.9%,.,
CN1CCCC(C(=O)C(C#N)c2ccccc2)C1 (configuration not stated),-1.3,-5.0,-41.2,1.7%,4.5,
Cc1ccc2[nH]c(=O)c(CN(CCO)Cc3nnnn3CCc3ccccc3)cc2c1,-1.5,-2.8,-3.7,3.0%,13.3,
CC(C)Cc1nnc(NC(=O)Cc2ccccc2[N+](=O)[O-])s1,0.1,0.2,-22.1,-4.6%,11.3,

# The listing continues:
SMILES,RecA splice inh,Mtb betalactam,YopH PTP inh,Mtb growth,Arbovirus inh,others
CCCCn1c(SCC(=O)N2CCc3ccccc32)nnc1-c1ccncc1,0.8,-2.2,.,.,.,
Cc1ccc(NC(=O)CCCSc2ccccc2)cc1S(=O)(=O)N1CCOCC1,6.1,23.5,.,-0.4%,5.8,
CC(Oc1ccc(Cl)cc1Cl)c1nc(-c2ccc(NC(=O)c3cccnc3)cc2)no1 (configuration not stated),-0.8,42.2,-4.0,76.2%,-14.2,
Cc1ccc2oc(-c3ccccc3)c(C(=O)O)c(=O)c2c1,4.5,8.7,2.6,11.5%,3.4,
O=C(NCc1cccnc1)C(C(=O)c1ccc(F)cc1)n1ccccc1=O (configuration not stated),0.8,8.1,8.0,-8.5%,-1.0,
Cc1cc(OCC(=O)N(C(C)C)C(C)C)ccc1Cl,-0.3,-5.7,.,1.7%,3.1,
Cc1ccc(C2=NS(=O)(=O)N(C)C(C(=O)N3CCCCC3)=C2)cc1,1.9,-0.5,.,.,.,
Cc1ccc2cc(CNC(C)C)c(=O)[nH]c2c1,-1.4,0.5,10.7,-7.1%,8.6,
CNS(=O)(=O)c1cccc(C(=O)OCC(=O)c2cc(C)n(-c3ccc4c(c3)OCO4)c2C)c1,9.0,-6.1,-24.3,-5.3%,-2.7,
CNCCc1c(C)n[nH]c1C,-1.1,5.0,-7.6,-14.6%,-1.7,
C=CCn1c(=O)[nH]c2cc(C(=O)N3CCN(c4cccc(Cl)c4)CC3)ccc2c1=O,-0.9,58.9,-30.1,.,12.2,Arbovirus inh repeat=-6.4
COc1ccc(C(=O)N2CCN(CCCc3ccccc3)CC2)cc1OC,-1.7,1.4,.,.,.,

# The last two entries of the section before come first, to join the parts.
SMILES,RecA splice inh,Mtb betalactam,YopH PTP inh,Mtb growth,Arbovirus inh,others
C=CCn1c(=O)[nH]c2cc(C(=O)N3CCN(c4cccc(Cl)c4)CC3)ccc2c1=O,-0.9,58.9,-30.1,.,12.2,Arbovirus inh repeat=-6.4
COc1ccc(C(=O)N2CCN(CCCc3ccccc3)CC2)cc1OC,-1.7,1.4,.,.,.,
O=C(CCc1nnc2ccc(N3CCOCC3)nn12)Nc1ccc(F)cc1F,2.1,-3.7,.,.,.,
CC(=O)Nc1ncnc2c1c(-c1ccc(Cl)cc1)nn2C(C)(C)C,0.9,5.3,.,2.4%,-16.4,
CN[C@H]1CCc2cc(OC)c(OC)c(OC)c2-c2ccc(OC)c(=O)cc21,3.9,-11.0,.,.,.,
COc1ccc(OC)c(S(=O)(=O)NCC(c2ccco2)N2CCc3ccccc3C2)c1 (configuration not stated),8.0,-12.1,.,.,.,
COc1ccc(CCN2C(=O)c3[nH]nc(-c4ccccc4O)c3C2c2ccccc2)cc1OC (configuration not stated),0.5,-3.8,-58.2,0.9%,5.9,

# Bioassay records (PubChem BioAssay)
